Screening data from PubChem BioAssay.
HIV Env fusion: HIV envelope-mediated fusion inhibition; HeLa-JRFL Env/CEM21 cell fusion, luciferase; inhibition, % at 12.3 µM; 360,000 compounds, 1.1% hits; AID 651610;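 active means mean replicate inhibition score of at least 50 and every replicate individually at or above 50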;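 further: 0% = plate neutral controls and 100% = maraviroc near 300 nM; one replicate is shown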
UUG fidelity: modulators of start codon recognition fidelity in yeast; S. cerevisiae UUG-firefly luciferase reporter, luminescence/redox ratio; activity score, % at 18.7 µM; 350,000 compounds, 0.13% hits; AID 602363;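 active means replicate mean at a twofold rise or more, about +100% in these data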;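 further: firefly luciferase made from a UUG start codon reports start codon fidelity; reporter light over untreated wells divided by growth signal over untreated wells; some hits fall short of that in this replicate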
* = called active by the depositor; [ ] = another dose, or the depositor's remark.

What do the screens show for `COc1ccc(-c2ccc([C@H]3[C@@H](C#N)N(C(=O)NC(C)C)[C@@H]3CO)cc2)cc1`?
HIV Env fusion: -19[16.7 µM]; UUG fidelity: -5

Results for CC(C)NC(=O)N(C)C[C@H]1Oc2ccc(NS(=O)(=O)c3cn(C)cn3)cc2CC(=O)N([C@H](C)CO)C[C@H]1C ?
HIV Env fusion: 0[16.7 µM]; UUG fidelity: -14

Results for Cc1noc(C)c1S(=O)(=O)Nc1ccc2c(c1)CC(=O)N([C@H](C)CO)C[C@H](C)[C@@H](CN(C)S(C)(=O)=O)O2 ?
HIV Env fusion: -7[16.7 µM]; UUG fidelity: 5

How did C[C@@H]1CN([C@H](C)CO)C(=O)c2cc(C#Cc3cccc(F)c3)cnc2O[C@@H]1CN(C)C(=O)C1CC1 do in these assays?
HIV Env fusion: -21[16.7 µM]; UUG fidelity: 3

What do the screens show for `CC(C)NC(=O)N[C@@H]1C=C[C@H](CC(=O)NCCN2CCCC2)O[C@@H]1CO`?
HIV Env fusion: -2[16.7 µM]; UUG fidelity: -16

How did COc1ccc(S(=O)(=O)N(C)C[C@H]2OCCCC[C@@H](C)Oc3ccc(NC(=O)Nc4cccc5ccccc45)cc3C(=O)N([C@H](C)CO)C[C@@H]2C)cc1 do in these assays?
HIV Env fusion: 16[16.7 µM]; UUG fidelity: -29

How did Cc1ccc(S(=O)(=O)N(C)C[C@@H]2Oc3ncc(C#CCC(C)C)cc3C(=O)N([C@H](C)CO)C[C@@H]2C)cc1 do in these assays?
HIV Env fusion: 32[16.7 µM]; UUG fidelity: 1

What do the screens show for `CCNC(=O)C[C@@H]1CC[C@@H]2[C@H](COc3ccc(NC(=O)Nc4ccccc4C)cc3C(=O)N2C)O1`?
HIV Env fusion: -7[16.7 µM]; UUG fidelity: 2

How did C[C@@H]1CN([C@H](C)CO)C(=O)Cc2cc(NC(=O)NC3CCCCC3)ccc2O[C@H]1CN(C)Cc1ccccc1 do in these assays?
HIV Env fusion: -3[16.7 µM]; UUG fidelity: 1

How did Cc1noc(C)c1NC(=O)Nc1ccc2c(c1)C(=O)N([C@H](C)CO)C[C@@H](C)[C@H](CN(C)Cc1ccc3c(c1)OCO3)OCCCC[C@H](C)O2 do in these assays?
HIV Env fusion: 1[16.7 µM]; UUG fidelity: 9

What do the screens show for `C[C@@H]1CN([C@@H](C)CO)S(=O)(=O)c2ccc(/C=C/c3ccccc3)cc2O[C@@H]1CN(C)C(=O)c1cccnc1`?
HIV Env fusion: 7[16.7 µM]; UUG fidelity: 3

How did COc1ccc(NC(=O)Nc2cccc3c2O[C@@H](CN(C)C(=O)Nc2ccc(C(F)(F)F)cc2)[C@@H](C)CN([C@H](C)CO)C3=O)cc1 do in these assays?
HIV Env fusion: -61[16.7 µM]; UUG fidelity: 14

Results for CCCNC(=O)Nc1ccc2c(c1)C(=O)N(C)[C@H]1CC[C@H](CC(=O)Nc3ccccc3F)O[C@@H]1CO2 ?
HIV Env fusion: 22[16.7 µM]; UUG fidelity: -1

How did C[C@H]1CN([C@@H](C)CO)S(=O)(=O)c2ccc(-c3ccc(C#N)cc3)cc2O[C@H]1CN(C)C(=O)C1CC1 do in these assays?
HIV Env fusion: -28[16.7 µM]; UUG fidelity: 17

What do the screens show for `CC(=O)N[C@@H]1CC[C@@H](CCNC(=O)C2CCCC2)O[C@H]1CO`?
HIV Env fusion: -28[16.7 µM]; UUG fidelity: -7

Structures from the list above that have a cyano group:
What do the screens show for `COc1ccc(-c2ccc([C@H]3[C@@H](C#N)N(C(=O)NC(C)C)[C@@H]3CO)cc2)cc1`?
HIV Env fusion: -19[16.7 µM]; UUG fidelity: -5

How did C[C@H]1CN([C@@H](C)CO)S(=O)(=O)c2ccc(-c3ccc(C#N)cc3)cc2O[C@H]1CN(C)C(=O)C1CC1 do in these assays?
HIV Env fusion: -28[16.7 µM]; UUG fidelity: 17

(listing goes on)
Results for Cc1noc(C)c1NC(=O)Nc1cccc2c1O[C@@H](CN(C)C(=O)Nc1cccc3ccccc13)[C@@H](C)CN([C@H](C)CO)C2=O ?
HIV Env fusion: -38[16.7 µM]; UUG fidelity: 5

What do the screens show for `C[C@H](CO)N1C[C@H](C)[C@H](CN(C)Cc2ccc(Cl)c(Cl)c2)OCCCC[C@H](C)Oc2ccc(NC(=O)Nc3ccccc3)cc2C1=O`?
HIV Env fusion: 71*[16.7 µM]; UUG fidelity: 5

What do the screens show for `CCC(=O)Nc1ccc2c(c1)OC[C@@H](C)N(C(=O)C1CC1)C[C@H](C)[C@@H](OC)CN(C)C2=O`?
HIV Env fusion: 10[16.7 µM]; UUG fidelity: -2

What do the screens show for `CCCNC(=O)N(C)C[C@@H]1Oc2ncc(-c3ccc(F)cc3)cc2C(=O)N([C@@H](C)CO)C[C@H]1C`?
HIV Env fusion: -23[16.7 µM]; UUG fidelity: 3

What do the screens show for `COc1ccc(S(=O)(=O)Nc2ccc3c(c2)C(=O)N([C@@H](C)CO)C[C@H](C)[C@@H](CN(C)S(=O)(=O)c2ccc(F)cc2)OCCCC[C@H](C)O3)cc1`?
HIV Env fusion: 9[16.7 µM]; UUG fidelity: 6

How did C[C@H](NC(=O)C[C@@H]1C=C[C@@H](NC(=O)CN2CCOCC2)[C@H](CO)O1)c1ccccc1 do in these assays?
HIV Env fusion: 7[16.7 µM]; UUG fidelity: -9

Results for C[C@H](CO)N1C[C@H](C)[C@H](CN(C)CC2CC2)OCCCC[C@H](C)Oc2ccc(NS(=O)(=O)c3cccs3)cc2C1=O ?
HIV Env fusion: -37[16.7 µM]; UUG fidelity: 19

What do the screens show for `Cc1noc(C)c1NC(=O)Nc1ccc2c(c1)C(=O)N([C@H](C)CO)C[C@H](C)[C@H](CN(C)S(=O)(=O)c1c(C)noc1C)OCCCC[C@@H](C)O2`?
HIV Env fusion: 8[16.7 µM]; UUG fidelity: 12

How did C[C@H](CO)N1C[C@H](C)[C@@H](CN(C)CC2CCCCC2)Oc2ncc(C#C[C@@H](C)O)cc2C1=O do in these assays?
HIV Env fusion: -8[16.7 µM]; UUG fidelity: 5

What do the screens show for `CCC(=O)N1C[C@H](C)[C@@H](OC)CN(C)C(=O)c2ccc(NS(C)(=O)=O)cc2OC[C@@H]1C`?
HIV Env fusion: 8[16.7 µM]; UUG fidelity: 3

What do the screens show for `C[C@@H]1CN([C@@H](C)CO)C(=O)c2cc(NS(C)(=O)=O)ccc2O[C@@H](C)CCCCO[C@@H]1CN(C)C(=O)c1ccccc1`?
HIV Env fusion: 9[16.7 µM]; UUG fidelity: 15

How did O=C(C[C@H]1C=C[C@@H](NC(=O)c2ccccc2)[C@H](CO)O1)Nc1ccc(-c2ccccc2)cc1 do in these assays?
HIV Env fusion: 21[16.7 µM]; UUG fidelity: -7

Results for C[C@@H]1CN([C@H](C)CO)C(=O)Cc2cc(NC(=O)c3ccncc3)ccc2O[C@@H]1CN(C)Cc1ccc(-c2ccccc2)cc1 ?
HIV Env fusion: 1[16.7 µM]; UUG fidelity: -6

What do the screens show for `COc1ccc(NC(=O)Nc2ccc3c(c2)C(=O)N([C@@H](C)CO)C[C@H](C)[C@H](CN(C)C(=O)NC2CCCCC2)O3)cc1`?
HIV Env fusion: -10[16.7 µM]; UUG fidelity: 19

Results for CC(C)NC(=O)N(C)C[C@@H]1Oc2ncc(C3=CCCCC3)cc2C(=O)N([C@@H](C)CO)C[C@H]1C ?
HIV Env fusion: -3[16.7 µM]; UUG fidelity: 12

Results for C[C@@H]1CN([C@@H](C)CO)C(=O)c2cc(C3=CCCCC3)cnc2O[C@H]1CN(C)C(=O)c1cccnc1 ?
HIV Env fusion: -3[16.7 µM]; UUG fidelity: 32

What do the screens show for `CCCNC(=O)C[C@H]1CC[C@@H]2[C@@H](COc3ccc(NC(=O)Cc4ccccc4)cc3C(=O)N2C)O1`?
HIV Env fusion: -4[16.7 µM]; UUG fidelity: 9

Results for CC(C)CC#Cc1ccc2c(c1)O[C@H](CN(C)Cc1ccc3c(c1)OCO3)[C@H](C)CN([C@H](C)CO)S2(=O)=O ?
HIV Env fusion: 21[16.7 µM]; UUG fidelity: 8

How did CCCNC(=O)Nc1ccc2c(c1)OC[C@H](C)N(C)C[C@H](C)[C@@H](OC)CN(C)C2=O do in these assays?
HIV Env fusion: -2[16.7 µM]; UUG fidelity: 4

What do the screens show for `CC(C)C#Cc1ccc([C@H]2[C@@H](CO)N(C(=O)C3CCC3)[C@H]2C#N)cc1`?
HIV Env fusion: -14[16.7 µM]; UUG fidelity: -5

Results for Cc1noc(C)c1NC(=O)Nc1cccc2c1O[C@H](CN(C)CC1CC1)[C@H](C)CN([C@H](C)CO)C2=O ?
HIV Env fusion: -4[16.7 µM]; UUG fidelity: -13

What do the screens show for `CCC(=O)N(C)C[C@@H]1Oc2ncc(C#CC(C)(C)O)cc2C(=O)N([C@@H](C)CO)C[C@H]1C`?
HIV Env fusion: 8[16.7 µM]; UUG fidelity: -4

What do the screens show for `Cc1noc(C)c1NC(=O)Nc1cccc2c1O[C@@H](CN(C)CC1CC1)[C@H](C)CN([C@@H](C)CO)C2=O`?
HIV Env fusion: -27[16.7 µM]; UUG fidelity: -8

What do the screens show for `C[C@H](CO)N1C[C@H](C)[C@H](CN(C)Cc2ccc(C(F)(F)F)cc2)Oc2ccc(NC(=O)C3CC3)cc2CC1=O`?
HIV Env fusion: -3[16.7 µM]; UUG fidelity: 2

What do the screens show for `C[C@@H]1CN([C@@H](C)CO)C(=O)c2cc(/C=C/c3ccccc3)cnc2O[C@H]1CN(C)C(=O)c1cccnc1`?
HIV Env fusion: -8[16.7 µM]; UUG fidelity: -11

How did CCC(=O)N(C)C[C@H]1Oc2cc(C#CCN(C)C)ccc2S(=O)(=O)N([C@@H](C)CO)C[C@H]1C do in these assays?
HIV Env fusion: 10[16.7 µM]; UUG fidelity: 13

What do the screens show for `C[C@@H]1CN([C@H](C)CO)C(=O)c2cc(NC(=O)Nc3ccccc3)ccc2O[C@@H]1CN(C)C(=O)Nc1ccccc1`?
HIV Env fusion: -14[16.7 µM]; UUG fidelity: -1

Results for C[C@@H]1CCCCO[C@H](CN(C)Cc2ccc(Cl)c(Cl)c2)[C@@H](C)CN([C@H](C)CO)C(=O)c2cc(NC(=O)Cc3ccccc3)ccc2O1 ?
HIV Env fusion: -4[16.7 µM]; UUG fidelity: -4

Results for CO[C@@H]1CN(C)C(=O)c2cc(NC(=O)C3CCCCC3)ccc2OC[C@@H](C)N(C(=O)c2ccccc2)C[C@@H]1C ?
HIV Env fusion: -15[16.7 µM]; UUG fidelity: 21

Results for C[C@H]1CN([C@@H](C)CO)C(=O)c2cc(-c3cccc(C#N)c3)cnc2O[C@@H]1CN(C)Cc1ccncc1 ?
HIV Env fusion: -7[16.7 µM]; UUG fidelity: -9

Nothing new here: entries from further up.
Results for C[C@@H]1CN([C@@H](C)CO)C(=O)c2cc(C3=CCCCC3)cnc2O[C@H]1CN(C)C(=O)c1cccnc1 ?
HIV Env fusion: -3[16.7 µM]; UUG fidelity: 32

What do the screens show for `CCCNC(=O)C[C@H]1CC[C@@H]2[C@@H](COc3ccc(NC(=O)Cc4ccccc4)cc3C(=O)N2C)O1`?
HIV Env fusion: -4[16.7 µM]; UUG fidelity: 9

The list goes on.
What do the screens show for `Cc1noc(C)c1NC(=O)N(C)C[C@@H]1OCCCC[C@@H](C)Oc2ccc(NC(=O)Nc3ccc4c(c3)OCO4)cc2C(=O)N([C@@H](C)CO)C[C@H]1C`?
HIV Env fusion: -32[16.7 µM]; UUG fidelity: 2

Results for CC(C)NC(=O)N(C)C[C@H]1Oc2c(NC(=O)C3CCCCC3)cccc2C(=O)N([C@H](C)CO)C[C@H]1C ?
HIV Env fusion: -2[16.7 µM]; UUG fidelity: 43

Results for C[C@H](CO)N1C[C@H](C)[C@@H](CN(C)Cc2ccc(C(=O)O)cc2)Oc2c(NC(=O)Nc3ccc4c(c3)OCO4)cccc2C1=O ?
HIV Env fusion: 5[16.7 µM]; UUG fidelity: -8

Results for C[C@@H]1CN([C@H](C)CO)C(=O)c2cc(C#CC3(O)CCCC3)cnc2O[C@@H]1CN(C)C ?
HIV Env fusion: 10[16.7 µM]; UUG fidelity: 2

What do the screens show for `C[C@@H]1CN([C@@H](C)CO)C(=O)c2cccc(NC(=O)C3CCOCC3)c2O[C@H]1CN(C)S(=O)(=O)c1ccc(F)cc1`?
HIV Env fusion: 8[16.7 µM]; UUG fidelity: -1

How did COc1cccc(S(=O)(=O)N[C@H]2CC[C@H](CCNC(=O)Nc3cc(F)ccc3F)O[C@H]2CO)c1 do in these assays?
HIV Env fusion: -8[16.7 µM]; UUG fidelity: 7

Results for CC(C)NC(=O)Nc1ccc2c(c1)C(=O)N([C@H](C)CO)C[C@@H](C)[C@@H](CN(C)Cc1ccccc1)O2 ?
HIV Env fusion: 13[16.7 µM]; UUG fidelity: -2

How did CC(C)NC(=O)N(C)C[C@@H]1OCCCC[C@@H](C)Oc2ccc(NS(C)(=O)=O)cc2C(=O)N([C@@H](C)CO)C[C@H]1C do in these assays?
HIV Env fusion: -11[16.7 µM]; UUG fidelity: 8

A portion of the library (hit frequency here may not be typical).
